PMK inhibit – S. pneumoniae PMK inhibition | purified PMK, PK/LDH-coupled NADH absorbance 340 nm | inhibition, % at 10 µM | actives 0.49% (n = 65,000);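 active = top-ranked compounds by inhibition in the single 10 µM screen, taking a fixed number of the strongest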;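 also: 0% = full reaction with DMSO carrier and 100% = background rate without enzyme reaction; no value below 0 was filed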
DPM-DC inhibit – inhibitors of Streptococcus pneumoniae diphosphomevalonate decarboxylase; actives 0.49% (n = 65,000); calls only at 10 µM; purified DPM-DC, PK/LDH coupled NADH fluorescence;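 active = the 320 compounds with the highest percent inhibition in the single-dose primary screen, excluding strongly autofluorescent ones, cut at about 32% in these data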;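 also: kinetic rate of NADH fluorescence loss reporting ADP formed by the decarboxylase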
Bfl-1 inhibitors – displacement of Bid BH3 peptide from Bfl-1 – biochemical, fluorescence polarization, FITC-Bid, mouse, primary screen (AID 432) | FITC-Bid BH3 peptide fluorescence polarization displacement; higher % means a stronger effect | displacement, % at 20 µM; hits with a dose series show IC50 in µM | actives 0.02% (n = 64,000); in the data active = a potency from the dose series; inactive = the rest, 99 in 100 with displacement below about 15%; also: strong numbers were not always called active
Spn MK inh – S. pneumoniae mevalonate kinase inhibition | inhibition, % at 10 µM | AID 555 | purified MK, PK/LDH-coupled NADH absorbance 340 nm | actives 0.48% (n = 65,000);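 active = ranked among the strongest by inhibition in the single 10 µM screen, a fixed top-ranked set picked for dose follow-up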; also: no value below 0 was filed
LYP phosphatase – inhibition of human PTPN22 tyrosine phosphatase – biochemical, DiFMUP fluorescence, recombinant catalytic domain, 10 µM, primary screen (AID 606); recombinant LYP catalytic domain, DiFMUP fluorescence; higher % means a stronger effect; one-dose inhibition, % at 10 µM; IC50 in µM for titrated hits; 52,000 tested, under 10 active;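 active = IC50 under 40 µM in the dose-response test; inactive = IC50 of 40 µM or more, or never dose-tested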
PMK inhibit pilot replicates – also measured in PMK inhibit; calls as there; inhibition, %; measured here: pilot screen replicates
Spn MK inh pilot replicates – recorded beside Spn MK inh, whose call it bears; inhibition, %; measured here: pilot screen replicates
DPM-DC inhibit pilot screen % – recorded beside DPM-DC inhibit, whose call it bears; inhibition, %; measured here: pilot screen trials
Starred values were filed as active, the others as inactive; i = inactive; / = no result given. A portion of the library; count on the stated rates, not on these rows.

smiles	PMK inhibit	PMK inhibit pilot replicates	DPM-DC inhibit	DPM-DC inhibit pilot screen %	Bfl-1 inhibitors	Spn MK inh	Spn MK inh pilot replicates	LYP phosphatase
C(=C\c1ccccc1)/CN1CCN(C(c2ccccc2)c2ccccc2)CC1	9	1.0	i	1.5	1%	7	0.0	14%
Cn1ncc2c1ncn1c(-c3ccccc3Cl)nnc21	1	/	i	/	1%	4	/	7%
C=CCSc1n[nH]c(-c2ccc(OC)cc2)n1	10	0.0	i	5.0	8%	8	2.5	2%
Cc1cnc(C(=O)NCCc2ccc(S(=O)(=O)NC(=O)NC3CCCCC3)cc2)cn1	0	8.5	i	1.5	-2%	7	0.0	7%
CC(Cc1ccc(O)c(O)c1)C(C)Cc1ccc(O)c(O)c1 (stereo unspecified)	5	8.0	i	4.5	5%	6	3.0	13%
O=C(NCC1CCCCN1)c1cc(OCC(F)(F)F)ccc1OCC(F)(F)F (stereo unspecified)	8	3.0	i	0.0	2%	6	4.0	15%
O=C1C(CCS(=O)c2ccccc2)C(=O)N(c2ccccc2)N1c1ccccc1 (stereo unspecified)	1	3.0	i	0.0	-11%	2	1.0	13%
CC1(C)Cc2c(sc3nc4n(c(=N)c23)CCCCC4)CO1	0	/	i	/	-4%	6	/	18%
Cc1ccc(Cl)c(Nc2ccccc2C(=O)O)c1Cl	0	3.5	i	2.5	5%	8	0.0	16%

Part of the list above, with values under each structure:
Every second line gives: PMK inhibit	PMK inhibit pilot replicates	DPM-DC inhibit	DPM-DC inhibit pilot screen %	Bfl-1 inhibitors	Spn MK inh	Spn MK inh pilot replicates	LYP phosphatase
> Cc1ccc(Cl)c(Nc2ccccc2C(=O)O)c1Cl
→ 0	3.5	i	2.5	5%	8	0.0	16%
> O=C(NCC1CCCCN1)c1cc(OCC(F)(F)F)ccc1OCC(F)(F)F (stereo unspecified)
→ 8	3.0	i	0.0	2%	6	4.0	15%
> Cc1cnc(C(=O)NCCc2ccc(S(=O)(=O)NC(=O)NC3CCCCC3)cc2)cn1
→ 0	8.5	i	1.5	-2%	7	0.0	7%
> CC1(C)Cc2c(sc3nc4n(c(=N)c23)CCCCC4)CO1
→ 0	/	i	/	-4%	6	/	18%

An excerpt from above in order of their number in DPM-DC inhibit pilot screen %, rising.
smiles	PMK inhibit	PMK inhibit pilot replicates	DPM-DC inhibit	DPM-DC inhibit pilot screen %	Bfl-1 inhibitors	Spn MK inh	Spn MK inh pilot replicates	LYP phosphatase
O=C(NCC1CCCCN1)c1cc(OCC(F)(F)F)ccc1OCC(F)(F)F (stereo unspecified)	8	3.0	i	0.0	2%	6	4.0	15%
C(=C\c1ccccc1)/CN1CCN(C(c2ccccc2)c2ccccc2)CC1	9	1.0	i	1.5	1%	7	0.0	14%
CC(Cc1ccc(O)c(O)c1)C(C)Cc1ccc(O)c(O)c1 (stereo unspecified)	5	8.0	i	4.5	5%	6	3.0	13%
